Screens deposited in PubChem by Broad Institute.
BJeLR viab HTS – BJeLR cell viability loss, primary screen, luminescence, CellTiterGlo ATP; BJeLR fibroblasts viability, 48 h; HRASV12, hTERT and SV40 LT/ST transformed; viability loss activity score, % (test concentration not listed); 30,000 compounds, 0.64% hits; in the data active = viability loss activity score above about 50%; about a fifth of its hits are not listed in these tables;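 note: higher score means fewer live cells and less ATP luminescence; stock transfer was 50 or 100 nL into about 30 µL; 0% = vehicle wells and 100% = a reference killing control; one replicate is shown; the record names a cut of 85%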
A1 inhib – inducers of caspase activity in MEF A1-2A-BIM cells, primary screen, A1 inhibitor project, cell-based, CaspaseGlo luminescence; caspase-Glo luminescence, 3 h; percent of clofoctol signal, DMSO as zero; caspase activation, % (concentration not given with the values); 21,000 compounds, 0.51% hits; AID 2241, 2010;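 active = most replicate scores above 10, or exactly half above 10 with mean activity above 10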;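 note: effector caspase 3 and 7 activity cleaving a DEVD luciferin substrate; 50 nL library stock added to about 30 µL; numbers are from one replicate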
An asterisk follows results filed as active; . = no result given.

Preview (five entries):
Screens in order – BJeLR viab HTS, A1 inhib
COc1ccc(-n2nc3c(c2NC(=O)c2ccccc2C(F)(F)F)CSC3)cc1
    -1.2, .
O=C(c1ccccc1)C1CCN(S(=O)(=O)c2ccc(Cl)cc2)CC1
    -6.8, -0.7
C[C@@H]1CN([C@H](C)CO)C(=O)c2cc(NS(=O)(=O)c3cn(C)cn3)ccc2O[C@H]1CN(C)S(=O)(=O)c1ccc(F)cc1
    0.6, -0.3
CC(=O)NC1=NN(C(C)=O)C(c2cccc3ccccc23)N1C(C)=O (centres undefined)
    -3.5, -0.3
C[C@@H]1CC[C@]2(C(=O)O)CC[C@]3(C)C(=CCC4[C@@]5(C)CC[C@@H](O)[C@](C)(C(=O)O)C5CC[C@]43C)C2[C@H]1C (some centres undefined)
    ., 0.1

All compounds of this part, previewed entries included:
Screens in order – BJeLR viab HTS, A1 inhib
COc1ccc(-n2nc3c(c2NC(=O)c2ccccc2C(F)(F)F)CSC3)cc1
    -1.2, .
O=C(c1ccccc1)C1CCN(S(=O)(=O)c2ccc(Cl)cc2)CC1
    -6.8, -0.7
C[C@@H]1CN([C@H](C)CO)C(=O)c2cc(NS(=O)(=O)c3cn(C)cn3)ccc2O[C@H]1CN(C)S(=O)(=O)c1ccc(F)cc1
    0.6, -0.3
CC(=O)NC1=NN(C(C)=O)C(c2cccc3ccccc23)N1C(C)=O (centres undefined)
    -3.5, -0.3
C[C@@H]1CC[C@]2(C(=O)O)CC[C@]3(C)C(=CCC4[C@@]5(C)CC[C@@H](O)[C@](C)(C(=O)O)C5CC[C@]43C)C2[C@H]1C (some centres undefined)
    ., 0.1
Cc1c(C(N)=O)nnc2cc(-c3ccccc3)nn12
    2.5, -4.7
CC1CCN(C(=O)c2cc3nc(-c4ccco4)cc(C(F)(F)F)n3n2)C(C)C1 (centres undefined)
    -0.7, -0.5
CNC[C@H]1Oc2c(NC(=O)C3CCOCC3)cccc2C(=O)N([C@@H](C)CO)C[C@@H]1C
    -3.1, .
Cc1noc(C)c1NC(=O)Nc1ccc2c(c1)C(=O)N([C@@H](C)CO)C[C@H](C)[C@H](CN(C)C(=O)NC(C)C)O2
    0.0, 0.5
COc1ccc(S(=O)(=O)N(C)C[C@H]2Oc3ccc(NS(=O)(=O)c4ccc(C)cc4)cc3C(=O)N([C@@H](C)CO)C[C@H]2C)cc1
    -1.8, -0.5
C[C@@H]1CN([C@@H](C)CO)C(=O)c2cc(N(C)C)ccc2O[C@@H]1CN(C)C(=O)Nc1cccc2ccccc12
    2.8, 0.6
CC(C)NC(=O)N(C)C[C@@H]1Oc2c(NC(=O)c3ccc(-c4nccs4)cc3)cccc2C(=O)N([C@@H](C)CO)C[C@H]1C
    -9.5, .
COc1ccc(CN(C)C[C@@H]2Oc3ccc(NC(=O)Cc4ccccc4)cc3C(=O)N([C@H](C)CO)C[C@H]2C)cc1
    0.5, -0.2
Cc1cccc(Cn2nc(C(C)(C)C)cc2C(=O)Nc2cccnc2)c1
    30, -1.0
Cc1cc(C(=O)O)nn1-c1ccccc1
    1.0, -0.5
C[C@@H]1CN([C@H](C)CO)C(=O)c2cc(NC(=O)Nc3ccc(C(F)(F)F)cc3)ccc2O[C@H]1CN(C)Cc1ccc(Cl)c(Cl)c1
    -2.5, -0.3
CC(N=Cc1ccccc1O)c1ccccc1 (centres undefined)
    -4.2, -0.2
COc1cc(OC)cc(OC)c1
    -4.9, 0.9
CC(=O)Nc1cc2c(ccc3ccccc32)oc1=O
    -0.9, 1.1
Cc1cc(C(=O)Nc2cccc3c2O[C@H](CN(C)Cc2ccccc2)[C@@H](C)CN([C@@H](C)CO)C3=O)n(C)n1
    2.4, .
CC(C)NC(=O)Nc1cccc2c1O[C@@H](CN(C)S(C)(=O)=O)[C@@H](C)CN([C@@H](C)CO)C2=O
    2.0, .
Cc1ccc(S(=O)(=O)N2CCOCC2)c(C)c1
    -1.8, 0.0
COc1ccc(CN(C)C[C@H]2Oc3c(NS(=O)(=O)c4cccs4)cccc3C(=O)N([C@@H](C)CO)C[C@@H]2C)cc1
    -2.4, .
COc1ccc(CN(C)C[C@H]2Oc3c(NC(=O)Nc4ccc(C(F)(F)F)cc4)cccc3C(=O)N([C@H](C)CO)C[C@H]2C)cc1
    -6.6, .
S=c1nc(C23CC4CC(CC(C4)C2)C3)[nH][nH]1
    2.6, -0.2
Cc1n[nH]c(=O)c2nc(-c3ccccc3)sc12
    -1.3, -0.1
C[C@@H]1CN([C@H](C)CO)C(=O)c2cccc(NC(=O)Nc3ccccc3)c2O[C@H]1CN(C)Cc1ccncc1
    0.9, .
N#CCCN(CC1CCCO1)C(=S)Nc1ccc(F)cc1 (centres undefined)
    1.1, 0.3
CC(C)CCNC(=O)c1cc(-c2ccccn2)nc2ccccc12
    -3.9, 0.9
CC(C)CSc1nnc2sc3ccccc3n12
    -0.6, 1.2

Screens in order – BJeLR viab HTS, A1 inhib
CC1=NOC(=O)/C1=C\C=C/c1ccccc1
    -7.0, 2.7
COc1ccc(NC(=O)Nc2ccc3c(c2)C(=O)N([C@H](C)CO)C[C@H](C)[C@H](CN(C)Cc2ccc(C(F)(F)F)cc2)O3)cc1
    -2.9, 0.4
O=C(O)C1C2C=CC(C2)C1C(=O)N1CCc2c([nH]c3ccccc23)C1C(F)(F)F (centres undefined)
    1.0, 0.7
CCc1ccccc1NC(=O)c1ccc2nc(N3CCC(C)CC3)sc2c1
    -0.6, 0.6
CC(C)Cc1ccc(S(=O)(=O)N2CCCc3ccccc32)cc1
    0.9, .
Cc1noc(C)c1S(=O)(=O)Nc1ccc2c(c1)C(=O)N([C@H](C)CO)C[C@H](C)[C@H](CN(C)C(=O)NC(C)C)O2
    1.0, 0.0
Cc1cc(NCCO)n2c(nc3ccccc32)c1C#N
    2.3, 0.5
CC1CCC2(CC1)Oc1ccccc1C1CC(c3ccco3)=NN12 (centres undefined)
    2.7, .
Cc1ccc(NC(=S)N2CCC(Nc3nccc(C(F)(F)F)n3)CC2)c(C)c1
    -0.3, .
COc1ccc(OCC2c3cc(OC)c(OC)cc3CCN2C(=O)C(C)C)cc1 (centres undefined)
    -0.1, -0.2
CCN1C(=O)NC(c2ccc(Cl)cc2)C2=C1CCCC2=O (centres undefined)
    1.6, 0.4
C[C@H]1CN([C@@H](C)CO)C(=O)c2cc(NC(=O)CCN3CCOCC3)ccc2O[C@H]1CN(C)Cc1ccc(Oc2ccccc2)cc1
    -0.8, 2.5
C[C@@H]1CN([C@H](C)CO)C(=O)c2cccc(NS(=O)(=O)c3ccccc3)c2O[C@@H]1CN(C)S(=O)(=O)c1ccc(F)cc1
    -7.8, .
C[C@@H]1CN([C@@H](C)CO)C(=O)c2cccc(NC(=O)Nc3ccccc3)c2O[C@@H]1CN(C)C(=O)Nc1ccc2c(c1)OCO2
    0.8, .
C[C@@H]1CN([C@@H](C)CO)C(=O)c2cc(NC(=O)Nc3ccccc3)ccc2O[C@@H]1CN(C)Cc1ccc(Oc2ccccc2)cc1
    0.3, 0.1
C[C@@H]1CN([C@H](C)CO)C(=O)c2cccc(NC(=O)C3CCCCC3)c2O[C@@H]1CN(C)CC1CCCCC1
    -0.6, .
CCn1c2c(c3cc(Br)ccc31)CCCC2=O
    -0.2, 0.0
Cc1ccccc1NC(=O)CCC(=O)O
    -4.2, -0.2
Cc1cc(Cc2ccc(Cl)cc2)c(=O)[nH]n1
    0.2, 0.0
O=C(O)c1ccccc1C(=O)NCC1CCCO1 (centres undefined)
    -0.2, -0.5
O=C(CN1N=C(c2ccccc2)CCC1=O)NC1CC1
    0.1, 0.5
COc1nc(Nc2ccc3c(c2)OCO3)nc(OC)n1
    -6.9, -3.0
C[C@@H]1CN([C@H](C)CO)C(=O)c2cc(NC(=O)Cc3cn(C)c4ccccc34)ccc2O[C@H]1CN(C)C(=O)Nc1ccc(F)cc1
    -1.3, 0.2
C[C@@H]1CN([C@@H](C)CO)C(=O)c2cccc(NC(=O)c3cnccn3)c2O[C@H]1CN(C)S(=O)(=O)c1cccs1
    3.8, .
CC(C)NC(=O)N(C)C[C@H]1Oc2ccc(NC(=O)CCCCCC(=O)Nc3ccccc3N)cc2C(=O)N([C@@H](C)CO)C[C@H]1C
    -3.5, .
Cc1cc(C(=O)Nc2cccc3c2O[C@@H](CN(C)Cc2ccc(-c4ccccc4)cc2)[C@@H](C)CN([C@@H](C)CO)C3=O)n(C)n1
    9.0, .
Cc1ccc(-c2nc(C=Nc3ccccc3)c(O)o2)cc1
    -12, -0.5
C[C@H]1CN([C@@H](C)CO)C(=O)c2cccc(NC(=O)C3CC3)c2O[C@@H]1CN(C)C(=O)Nc1ccc(F)cc1
    -9.0, .
C[C@H]1CN([C@@H](C)CO)C(=O)c2cc(NS(=O)(=O)c3ccc(Cl)cc3)ccc2O[C@@H]1CN(C)C(=O)Nc1ccc2c(c1)OCO2
    -6.8, 0.4
CNC[C@H]1Oc2ccc(NC(=O)CCCN(C)C)cc2C(=O)N([C@@H](C)CO)C[C@H]1C
    -0.3, -0.2

Complete entries, looked up by structure. Order of screens: BJeLR viab HTS | A1 inhib
CCn1c2c(c3cc(Br)ccc31)CCCC2=O in the list: -0.2 | 0.0
CC1=NOC(=O)/C1=C\C=C/c1ccccc1 in the list: -7.0 | 2.7

(further entries)
Screens in order – BJeLR viab HTS, A1 inhib
Cc1noc(C)c1S(=O)(=O)Nc1ccc2c(c1)C(=O)N([C@@H](C)CO)C[C@H](C)[C@H](CN(C)S(=O)(=O)c1cccs1)O2
    0.1, 0.1
COc1ccc(S(=O)(=O)Nc2cccc3c2O[C@H](CN(C)C(=O)NC(C)C)[C@@H](C)CN([C@H](C)CO)C3=O)cc1
    -4.1, .
C[C@H](CO)N1C[C@H](C)[C@H](CN(C)C(=O)Nc2cccc3ccccc23)Oc2c(NC(=O)c3cnccn3)cccc2C1=O
    -2.3, .
C[C@H]1CN([C@@H](C)CO)C(=O)c2cccc(NS(=O)(=O)c3ccc(Cl)cc3)c2O[C@H]1CN(C)C(=O)NC1CCCCC1
    1.9, .
C[C@@H]1CN([C@@H](C)CO)C(=O)c2cccc(NS(=O)(=O)c3cccs3)c2O[C@@H]1CN(C)Cc1ccncc1
    2.5, .
O=C(Nc1ccccc1)Nc1ccccc1
    1.7, -6.9
CCC(C)NC(=O)c1cc(C2CC2)on1 (centres undefined)
    3.3, .
N#C/C(=C\c1ccncc1)c1ccc(NC(N)=O)cc1
    1.9, 0.7
Cc1cccc(N(C)S(=O)(=O)c2ccc3c(c2)CCC(=O)N3)c1
    0.3, .
Cc1nc(C(N)=NC(=O)c2ccc(OC(F)(F)F)cc2)cs1
    0.9, -1.8
CC(C)NC(=O)N(C)C[C@@H]1Oc2ccc(NC(=O)Nc3cccc4ccccc34)cc2C(=O)N([C@@H](C)CO)C[C@H]1C
    -1.1, -0.6
CC1Sc2ccc(Cl)cc2C(=O)/C1=C/N(C)C (centres undefined)
    -0.7, 0.7
O=C(NCc1ccccc1)/C(=C\c1ccccc1)NC(=O)c1ccccc1
    0.5, 0.4
C[C@H]1CN([C@@H](C)CO)C(=O)c2cc(NC(=O)Cn3cnnn3)ccc2O[C@@H]1CN(C)S(C)(=O)=O
    -2.1, 0.3
C[C@H](CO)N1C[C@H](C)[C@@H](CN(C)Cc2ccncc2)Oc2c(NS(=O)(=O)c3cn(C)cn3)cccc2C1=O
    14, .
COc1ccc(C2CC(=O)c3cnc(N)nc3C2)cc1OC (centres undefined)
    1.6, -0.3
O=C(CCN1C(=O)/C(=C/c2ccc(Cl)cc2)SC1=S)Nc1ccccc1
    9.0, 0.5
C[C@@H]1CN([C@H](C)CO)C(=O)c2cc(NC(=O)CCC(F)(F)F)ccc2O[C@@H]1CN(C)S(=O)(=O)c1ccccc1
    5.0, 0.0
CC(=O)N1CCN(c2ccc(OC(=O)c3ccc(Oc4cc(Cl)cc(Cl)c4)o3)cc2)CC1
    17, 0.8
O=C(CCn1c(SCc2ccc(F)cc2)nc2c(sc3ccccc32)c1=O)NCC1CCCO1 (centres undefined)
    -1.7, .
COc1ccc(S(=O)(=O)Nc2cccc3c2O[C@@H](CN(C)Cc2ccc(-c4ccccc4)cc2)[C@@H](C)CN([C@@H](C)CO)C3=O)cc1
    7.2, .
C[C@H](CO)N1C[C@H](C)[C@H](CN(C)C(=O)Nc2ccc(C(F)(F)F)cc2)Oc2ccc(NS(=O)(=O)c3cn(C)cn3)cc2C1=O
    -0.1, 0.2
C[C@H](CO)N1C[C@H](C)[C@H](CN(C)Cc2ccncc2)Oc2ccc(NC(=O)c3ccncc3)cc2C1=O
    -0.7, -0.4
Cc1ccc(S(=O)(=O)N(C)C[C@H]2Oc3c(NC(=O)NC4CCCCC4)cccc3C(=O)N([C@@H](C)CO)C[C@H]2C)cc1
    -4.9, .
CS(=O)(=NS(=O)(=O)c1ccc(-c2ccccn2)s1)c1ccc(Cl)cc1 (centres undefined)
    -0.7, -0.6
CCOC(=O)c1nnc(-c2ccccc2)o1
    2.5, .
C[C@H](CO)N1C[C@H](C)[C@H](CN(C)Cc2ccc(-c3ccccc3)cc2)Oc2ccc(NC(=O)CCCN(C)C)cc2C1=O
    4.2, 0.0
COc1cccc(/C=N/c2c(-c3ccccc3)c(C(F)(F)F)nn2C)c1OC
    -3.7, -0.5
CCCNC(=O)c1cc(C)nn1-c1ccccc1
    2.9, .
COc1ccc(CN(C)C[C@@H]2Oc3ccc(NC(=O)Nc4ccc(F)cc4)cc3C(=O)N([C@H](C)CO)C[C@H]2C)cc1
    -1.2, -0.6
C[C@H]1CN([C@@H](C)CO)C(=O)c2cccc(NC(=O)Nc3ccccc3)c2O[C@H]1CN(C)Cc1ccc2c(c1)OCO2
    -1.5, .

Some of the compounds tested. The share of hits here may be higher or lower than overall.
